miR-21 FLuc = raises the signal of a miR-21 reporter | HeLa miR-21 FLuc reporter, luciferase, 48 h | Potency, µM (series often up to 38.3 µM), for inactives: at the highest dose reporter change, positive = more light | 340,000 tested, under 10 active | AID 2288; active = well fitted rising curve with a large enough effect; inconclusive = small, poorly fitted or top-dose-only effect; inactive = no such curve, though single readings can be large or run the other way;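 note: % of control where 0% means no effect; miR-21 action dims this reporter so a rising signal means less miR-21 action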
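Luminescence from a firefly luciferase reporter carrying a miR-21 binding site downstream, stably expressed under a CMV promoter in HeLa cells that make miR-21 endogenously, reports miRNA modulation after 48 h compound exposure up to approximately 40uM final.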
Rango complex inh = prevents formation of the Rango-importin beta complex | Rango CFP/YFP FRET sensor + importin beta, 45 min | Q14974 | 340,000 tested, 0.031% active | Potency, µM (doses to about 92.2 µM), for inactives: top-dose inhibition of complex formation; active = rising FRET ratio curve, often small or poorly fitted; inconclusive = mostly compound fluorescence or quenching in the first reads; inactive = flat curves in all reads;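 note: potency is the fitted concentration of half-maximal effect; 0% = DMSO wells and 100% = buffer wells lacking importin beta; nearly all actives have a fitted effect of over 15% in size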
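FRET biosensor Rango (snurportin 1 IBB between N-terminal EYFP and C-terminal Cerulean), 50 nM in PBS/1 mM DTT/0.02% Tween-20/0.1% BSA, preincubated 5 min RT with compound; 0.125 microM importin beta added, 45 min RT, CFP/YFP FRET ratio read.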
GLA inh pH 4.5 = inhibitors of human alpha-galactosidase A at pH 4.5; purified enzyme, 4-MU-alpha-Gal fluorescence, pH 4.5; activity change, negative = inhibition, % at 105 µM; 230,000 tested, under 10 active; P06280; inconclusive = small, poorly fitted or top-dose-only inhibition, or a rising curve; inactive = flat fitted curve, though single readings scatter; no compound was filed as active;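 note: 0% = full activity with enzyme and -100% = basal without enzyme; dose as in the result columns while the protocol names 77 µM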
Target sequence (P06280 whole entry, looked up): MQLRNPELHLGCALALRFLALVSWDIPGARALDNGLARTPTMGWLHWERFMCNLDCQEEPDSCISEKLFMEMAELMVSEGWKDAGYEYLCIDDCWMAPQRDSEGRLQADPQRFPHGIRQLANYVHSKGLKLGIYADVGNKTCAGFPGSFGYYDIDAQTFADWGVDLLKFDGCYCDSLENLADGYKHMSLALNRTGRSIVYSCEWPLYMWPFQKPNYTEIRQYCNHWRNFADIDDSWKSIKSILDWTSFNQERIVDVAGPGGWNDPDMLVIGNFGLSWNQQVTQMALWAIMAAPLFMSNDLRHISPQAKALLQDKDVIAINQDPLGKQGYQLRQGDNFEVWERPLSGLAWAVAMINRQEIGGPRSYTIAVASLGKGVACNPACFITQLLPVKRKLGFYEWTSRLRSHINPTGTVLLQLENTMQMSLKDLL
Rango dissoc inh = prevents RanGTP from dissociating the Rango-importin beta complex; Potency, µM (doses to about 46.1 µM), inactives show at the top dose activity change, negative = inhibition; 340,000 tested, 0.071% active; AID 540253; O95149+P62826; Biochemical FRET Rango-importin beta, RanGTP-induced dissociation; active means falling FRET ratio curve, often poorly fitted, with flat reads before Ran was added; inconclusive means other falling curves, or compound fluorescence or quenching; inactive means flat or rising ratio curve;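 note: potency is the fitted concentration of half-maximal effect; % of control where 0% means no effect; nearly all actives have a fitted effect of over 45% in size; -100% = wells without RanGTP and RCC1; the record marks most hits as doubtful in a second field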
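Compounds preincubate 5 min with complex of recombinant Rango and importin beta in PBS with 1 mM DTT. Ran (0.6 uM) loaded with 2 mM GTP plus 0.2 uM RCC1 starts dissociation; FRET is recorded 45 min later.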
* hit, by the source's call; ? = inconclusive; / = not tested or not shown; & = joins results of further samples. A portion of the library; count on the stated rates, not on these rows.

SMILES	miR-21 FLuc	Rango complex inh	GLA inh pH 4.5	Rango dissoc inh
Cc1c(N2C(=O)/C(=C\c3ccc(N(C)C)cc3)N(C)C2=S)c(=O)n(-c2ccccc2)n1C	-3%	52µM*	-15	1%
COc1ccc([C@H]2CC(=O)C=C(c3ccc(F)cc3OCc3ccccc3)C2)cc1	/	-0.7%	/	22%
CCn1c(SCC(=O)N2CCOCC2)nc2c([nH]c3ccccc32)c1=O	2%	1.5%	/	24%
COc1cccc(C(=O)NCC(=O)NCc2cc(=O)n(C)c(=O)n2C)c1OC	0%	?	/	-8%
O=[N+]([O-])c1cc(CN2CCCC2)c2cccnc2c1O	-1%	-2.5%	-6	12%
COc1ccccc1CCN=C(N)NS(=O)(=O)c1cccs1	1%	-2.0%	5	-6%
COc1cc(C2C(C#N)=C(C)NC(C)=C2C#N)cc(OC)c1OC	1%	-0.4%	-2	-9%
COc1ccc([N+](=O)[O-])cc1N(CC(=O)NCCSc1ccc(C)cc1)S(C)(=O)=O	2%	3.6%	0	2%
Cc1ccc(-c2noc(CNC(=O)c3ccoc3C)n2)cc1	-11%	2.4%	/	-5%
CCn1c2ccc(C)cc2c2nnc(SCCN3CCOCC3)nc21	-15%	-4.6%	-3	11%
O=c1[nH]oc(O)c1-c1ncc(C(F)(F)F)cc1Cl	4%	3.0%	8	31%
N=C1/C(=C/c2ccc(OCc3ccccc3F)cc2)C(=O)N=C2SC(CC(=O)N3CCOCC3)=NN12	-15%	-3.0%	/	-17%
CSCCC(NC(=O)c1ccccc1Cl)C(=O)NCC1COc2ccccc2O1 (stereo not drawn)	/	5.8%	/	-27%
COC(=O)CCCC(=O)NC(C)c1cnn(-c2ccccc2C)c1C (stereo not drawn)	0%	0.2%	10	15%
CCOC(=O)CNC(=O)COc1coc(CN2CCN(c3ccccc3F)CC2)cc1=O	0%	8.4%	/	-13%
COC(=O)CSc1nc2c(c(C3CC=CCC3)c1C#N)CCC2 (stereo not drawn)	-2%	-1.4%	-1	0%
CC(C)n1c(=O)[nH]c2ccccc21	-11%	2.5%	5	-14%
CC1CCCCC1NC(=O)C1CCC(CNS(=O)(=O)c2ccc(F)cc2)CC1 (stereo not drawn)	-2%	-1.7%	/	-6%
C=CC(=O)N1c2ccccc2Sc2ccc(NC(=O)OCC)cc21	/	0.2%	/	-3%
CCn1c(SCC(=O)N2CCCCCC2)nc2c([nH]c3ccccc32)c1=O	-2%	0.2%	/	4%
Cc1ccc(-n2ncc3c2CC(C)(C)CC3NC(=O)CCCN2CCCC2=O)cc1 (stereo not drawn)	1%	0.8%	/	5%
COC(=O)CC1COc2ccccc2N1C(=O)c1cccc(C(F)(F)F)c1 (stereo not drawn)	2%	0.1%	4	-2%
CCC(=O)Nc1cccc(NC(=S)NC(=O)c2ccccc2Cl)c1	-12%	-1.5%	-17	-6%
COc1ccc(OC)c(NS(=O)(=O)c2ccc(NC(C)=O)cc2)c1	11%	-1.0%	8	13%
Cc1cccc(NC(=O)c2cc(Cl)ccc2[N+](=O)[O-])c1	?	-1.9%	-5	1%
C=CCn1c(SCc2ccc3nonc3c2)nnc1-c1cccs1	-9%	-3.5%	0	8%
COc1ccccc1CN1CC(C(=O)N(C)CCOc2ccccc2)CCC1=O (stereo not drawn)	-8%	4.7%	/	12%
O=C(NCc1ccco1)C1CCCN(S(=O)(=O)c2cccc3cccnc23)C1 (stereo not drawn)	-1%	-5.2%	-11	-2%
COc1ccc(CC(=O)Nc2nc(C)cs2)cc1S(=O)(=O)N1CCOCC1	/	-2.1%	/	14%
CC(C)Oc1ccc(C(=O)NC(Cc2c[nH]c3ccccc23)C(=O)NN)cc1 (stereo not drawn)	0%	-3.4%	-5	15%
O=C(O)c1ccc(Nc2nc(-c3ccccc3)nc3ccccc23)cc1	-7%	-0.7%	/	21%
CCc1ccc2c(CC(=O)Nc3cccc(S(=O)(=O)N4CCOCC4)c3)coc2c1	/	-0.3%	/	6%
NN/C(=C\[N+](=O)[O-])Nc1ccccc1	-39%	-0.2%	-1	-2%
COc1cccc(NC(=O)CN2C(=O)CSc3ccc(S(=O)(=O)N4CCC(C)CC4)cc32)c1	22%	-1.3%	/	-6%
CCOc1ccc(N2C(=O)CC(N3CCN(c4ccccc4F)CC3)C2=O)cc1 (stereo not drawn)	-6%	-4.1%	-1	21%
CCN1C[C@@H]2[C@@H]3C(=O)N(Cc4ccccc4)C(=O)[C@@H]3[C@](Cc3ccccc3)(C1=O)N2C(=O)c1ccc(Cl)cc1	/	?	/	-25%
CC1CCN(C(=O)c2ccc(S(=O)(=O)N3CCCCCC3)cc2)CC1	/	-5.1%	/	8%
COc1ccc(NS(=O)(=O)c2cc(NC(=O)c3ccc(F)cc3)ccc2OC)cc1	15%	?	-7	7%
O=C(COc1ccc(F)cc1)NNC(=O)c1cc2ccccc2oc1=O	-12%	0.3%	3	-17%
O=C(N/N=C/c1cnc(N2CCCCC2)s1)c1ccc(C(F)(F)F)cc1	0%	?	-3	-15%
C#CCOCCOCCOCCNc1nc(N2CCN(C(=O)Cn3cc(CCCN=C(N)N)nn3)CC2)nc(N2CCN(C(=O)Cn3cc(CC(C)O)nn3)CC2)n1 (stereo not drawn)	/	-0.1%	/	-13%
Cc1nc(N[C@@H](Cc2ccccc2)C(=O)O)c2oc3ccccc3c2n1	-5%	-4.4%	5	18%
O=C(Sc1cccc2cccnc12)c1ccc(F)cc1	27%	/	6	/
Cc1ccccc1N(CC(=O)Nc1ccc(F)cc1)S(C)(=O)=O	-14%	-3.3%	-1	19%
CCOc1cccc(OCCOCCNC(C)(C)C)c1	0%	4.7%	0	23%
COCCNC(=O)c1onc(CSc2ccccc2)c1C(=O)O	-2%	2.0%	9	-17%
CC(C)(C)c1nn(-c2ccccc2)c2[nH]c(=O)c(CNCc3ccco3)cc12	-19%	?	2	-28%
COc1ccc(C(=O)NNC(=O)CSc2nc3c([nH]2)c(=O)n(C)c(=O)n3C)cc1	3%	-0.6%	-8	1%
CCOC(=O)NCC(C#CCN(CC)CC)N(CC)CC (stereo not drawn)	-4%	2.8%	-5	2%
Cc1ccc(Nc2nc(N)nc(CSc3nncn3C)n2)cc1	-30%	3.0%	1	-6%
O=C(Nc1cccc(-c2nc3cccnc3s2)c1)C1c2ccccc2Oc2ccccc21	-30%	1.5%	-10	-5%
CC1(C)CC2(CCO1)OC(=O)CC2C(=O)Nc1c(Cl)cccc1Cl (stereo not drawn)	3%	9.2%	-6	-7%
COc1ccc2c3c1OC1CC(O)C=CC31CCN(C)C2 (stereo not drawn)	0%&-2%	4.1%&-0.2%	-12	12%&-7%
Cc1cccc(NC2=C(C#N)C(=O)NC3(CCCC3)S2)c1	-1%	-1.1%	-4	9%
CN(Cc1ccccc1)c1nc2c(c(=O)[nH]c(=O)n2C)n1Cc1ccccc1Cl	-12%	-0.8%	9	-8%
COC(CNC(=O)C1CCN(C(=O)c2cc3oc(C)cc3n2Cc2c(F)cccc2Cl)CC1)OC	20%	-0.5%	-10	26%
COC(=O)N[C@@H]1C[C@H]2[C@@H]3CC[C@H]4C[C@@H](OC)CC[C@]4(C)[C@H]3CC[C@]12C	/	0.2%	/	-6%
COc1ccc(S(=O)(=O)N2CCc3ccccc32)cc1C(=O)Nc1ccc(C(N)=O)cc1	/	4.1%	/	-2%
Cn1c(CC(=O)Nc2ccccc2F)nnc1SCC(=O)NC1CCCC1	0%	-1.8%	/	-3%
Cc1ncoc1C(=O)N1CCCC(C(=O)c2ccc(C(F)(F)F)cc2)C1 (stereo not drawn)	-2%	0.3%	9	-14%
Additional results follow.
SMILES	miR-21 FLuc	Rango complex inh	GLA inh pH 4.5	Rango dissoc inh
CNC(=O)NC(=O)CSc1nc2sccc2c(=O)n1-c1ccccc1	-9%	4.2%	/	-14%
Cn1c(=O)c(C(=O)CN2CCc3ccccc32)c(N)n(Cc2ccccc2)c1=O	-1%	-4.9%	-3	-6%
COc1cccc(CN2CCN(Cc3cccn3-c3cccnc3)CC2CCO)c1 (stereo not drawn)	-2%	-4.5%	7	9%
CCCCOC(=O)C1=C(C)NC(=O)NC1c1ccc([N+](=O)[O-])s1 (stereo not drawn)	-3%	-0.2%	-26	-13%
Cc1cc(C)cc(N2CCCC2=O)c1	-5%	0.7%	-3	15%
C=C(C)C(=O)Nc1cccc(C2=NOC3(C2)C[C@@H](C(N)=O)N(C(=O)/C(C)=C/C)C3)c1 (stereo partly drawn)	2%	-7.3%	3	1%
CCCCn1c(N)c(N(CC(C)C)C(=O)c2cccc(S(=O)(=O)N(C)c3ccc(C)cc3)c2)c(=O)[nH]c1=O	/	2.2%	/	1%
CCN(C[C@H]1N[C@@](CC)(C(=O)OC)[C@H]2C(=O)N(C)C(=O)[C@@H]12)C(=O)NC(C)C	/	-2.6%	/	24%
FC(F)(F)c1cccc(Nc2cc(-c3ccccc3)nc3ncnn23)c1	2%	-3.0%	-3	2%
CC(=O)Nc1ccc(NC(=O)CSc2nnc(C3CC3)n2-c2ccccc2)cc1	/	-0.8%	/	6%
O=C(c1cnc2n(c1=O)CCS2)N1CCCc2ccccc21	-1%	0.0%	2	8%
Cc1nn(Cc2ccccc2Cl)c(C)c1NC(=O)/C=C/c1cnn(C)c1	-1%	-2.1%	0	-8%
C=CCN1C(=NC(=O)CCC)SC2CS(=O)(=O)CC21 (stereo not drawn)	-1%	-2.1%	3	-10%
CC(C)[C@H](NC(=O)[C@@H]1Cc2ccccc2CN1)C(=O)Nc1ccc2c(c1)OCCO2	-10%	-1.2%	/	9%
COc1cccc(C2C(C(=O)c3cc4cccc(OC)c4o3)=C(O)C(=O)N2c2cc(C)on2)c1OC (stereo not drawn)	-3%	?	6	?

Random excerpt: 3 entries already listed
SMILES	miR-21 FLuc	Rango complex inh	GLA inh pH 4.5	Rango dissoc inh
CCN(C[C@H]1N[C@@](CC)(C(=O)OC)[C@H]2C(=O)N(C)C(=O)[C@@H]12)C(=O)NC(C)C	/	-2.6%	/	24%
CC(C)[C@H](NC(=O)[C@@H]1Cc2ccccc2CN1)C(=O)Nc1ccc2c(c1)OCCO2	-10%	-1.2%	/	9%
CC(=O)Nc1ccc(NC(=O)CSc2nnc(C3CC3)n2-c2ccccc2)cc1	/	-0.8%	/	6%

Other records.
SMILES	miR-21 FLuc	Rango complex inh	GLA inh pH 4.5	Rango dissoc inh
Fc1ccc(-c2cc(C(F)(F)F)nc(-n3cc(Cl)cn3)n2)cc1	-7%	2.5%	0	-8%
NC(=S)Nc1c(Cl)cccc1Cl	-3%	-4.1%	0	1%
O=C(NC1CCCC1)c1c[nH]c2ccc(F)cc2c1=O	-15%	7.0%	-1	8%
Cc1ccc(C)c(S(=O)(=O)NCc2ccc(C(=O)NCc3ccco3)cc2)c1	-7%	1.4%	-1	4%
CNc1nc(Cl)c(SC)c(NCc2cccc(OC)c2)n1	-15%	0.4%	/	3%
CCN(C(=O)COC(=O)CNC(=O)c1ccc(Cl)cc1Cl)c1c(N)n(Cc2ccccc2)c(=O)[nH]c1=O	/	6.5%	/	0%
O=C(COc1ccc(Cl)cc1Br)NC(=O)NC1CCCC1	/	-2.1%	/	-6%
CCOC(=O)c1cnc2cc(C)ccn2c1=O	-19%	-1.9%	?	14%
CC(C)OCCCNS(=O)(=O)c1ccc2c(c1)OCCO2	-8%	7.0%	-1	-15%
COc1cc(Cl)cc(/C=C/c2ccc3cccc(O)c3n2)c1OC	-7%	-0.3%	/	-1%
Cc1cccc(N(C)C(=O)c2coc(=O)c3ccccc23)c1	6%	1.9%	-2	-23%
Nc1cc(=O)[nH]c(SCCSc2ccccc2F)n1	-21%	0.4%	/	25%
CN=Cc1c(NC)nc2c(C)cccn2c1=O	0%	-0.7%	3	-7%

Arranged by heavy-atom count (rising): some entries from above
SMILES	miR-21 FLuc	Rango complex inh	GLA inh pH 4.5	Rango dissoc inh
CCOC(=O)c1cnc2cc(C)ccn2c1=O	-19%	-1.9%	?	14%
Nc1cc(=O)[nH]c(SCCSc2ccccc2F)n1	-21%	0.4%	/	25%
O=C(NC1CCCC1)c1c[nH]c2ccc(F)cc2c1=O	-15%	7.0%	-1	8%
Cc1cccc(N(C)C(=O)c2coc(=O)c3ccccc23)c1	6%	1.9%	-2	-23%
Cc1ccc(C)c(S(=O)(=O)NCc2ccc(C(=O)NCc3ccco3)cc2)c1	-7%	1.4%	-1	4%

Screens as filed in PubChem.
